Source: PubChem BioAssay (National Center for Advancing Translational Sciences (NCATS))
miR-21 FLuc: qHTS Assay for Modulators of miRNAs and/orActivators of miR-21. HeLa miR-21 FLuc reporter, luciferase, 48 h. Potency, µM (top dose mostly 38.3 µM), without a hit: at the highest dose reporter change, positive = more light. 340,000 tested, under 10 active; active = well fitted rising curve with a large enough effect; inconclusive = small, poorly fitted or top-dose-only effect; inactive = no such curve, though single readings can be large or run the other way;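 also: % of control where 0% means no effect; miR-21 action dims this reporter so a rising signal means less miR-21 action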
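HeLa cells endogenously expressing miR-21, stably carrying CMV-driven firefly luciferase with a downstream miR-21 binding site, 2000 cells/well. Titrations up to approximately 40 uM, 48 hours; luciferase luminescence read.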
Rango complex inh: qHTS Assay for Inhibitors of Rango (Ran-regulated importin-beta cargo) - Importin beta complex formation; Rango CFP/YFP FRET sensor + importin beta, 45 min; Potency, µM (series often up to 92.2 µM), without a hit: top-dose inhibition of complex formation; AID 540263, 2011; actives 0.031% (n = 340,000); Importin subunit beta-1 (Homo sapiens), Q14974; active = rising FRET ratio curve, often small or poorly fitted; inconclusive = mostly compound fluorescence or quenching in the first reads; inactive = flat curves in all reads;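 also: potency is read from the fitted curve at half-maximal effect; 0% = DMSO wells and 100% = buffer wells lacking importin beta; nearly all actives have a fitted effect of over 15% in size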
Target sequence (Q14974 whole entry, looked up): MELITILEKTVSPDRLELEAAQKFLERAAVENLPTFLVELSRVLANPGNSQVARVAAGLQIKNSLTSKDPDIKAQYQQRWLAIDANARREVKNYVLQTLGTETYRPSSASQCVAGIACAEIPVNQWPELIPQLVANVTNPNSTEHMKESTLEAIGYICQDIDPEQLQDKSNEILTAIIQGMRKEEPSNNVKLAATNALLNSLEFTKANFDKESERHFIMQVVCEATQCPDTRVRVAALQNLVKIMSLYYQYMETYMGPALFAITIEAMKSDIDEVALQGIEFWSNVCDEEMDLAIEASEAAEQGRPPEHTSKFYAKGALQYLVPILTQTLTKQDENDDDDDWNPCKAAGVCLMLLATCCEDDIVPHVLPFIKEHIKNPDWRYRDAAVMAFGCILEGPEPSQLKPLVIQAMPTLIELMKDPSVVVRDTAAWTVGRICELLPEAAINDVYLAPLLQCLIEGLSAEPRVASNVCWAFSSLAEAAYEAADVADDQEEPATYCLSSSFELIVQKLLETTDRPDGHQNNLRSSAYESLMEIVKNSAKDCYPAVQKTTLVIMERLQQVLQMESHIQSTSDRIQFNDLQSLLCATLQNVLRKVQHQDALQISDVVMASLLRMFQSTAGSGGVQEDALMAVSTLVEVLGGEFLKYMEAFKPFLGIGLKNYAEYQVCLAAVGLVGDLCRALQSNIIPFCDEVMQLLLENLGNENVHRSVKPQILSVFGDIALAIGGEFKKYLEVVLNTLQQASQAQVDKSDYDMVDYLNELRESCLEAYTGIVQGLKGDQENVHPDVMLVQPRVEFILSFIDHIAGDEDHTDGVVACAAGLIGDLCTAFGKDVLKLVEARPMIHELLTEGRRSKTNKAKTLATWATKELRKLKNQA
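Inhibition scored from the CFP 486 nm/YFP 530 nm FRET ratio 45 min after adding 0.125 microM importin beta to 50 nM Rango biosensor preincubated 5 min with compound (room temperature, PBS with DTT, Tween-20, BSA). No-importin wells as positive control.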
GLA inh pH 4.5: qHTS Assay for Inhibitors of Human alpha-Galactosidase at pH 4.5; 230,000 tested, under 10 active; Alpha-galactosidase A (Homo sapiens), P06280; activity change, negative = inhibition, % at 105 µM; AID 1467, 2008; purified enzyme, 4-MU-alpha-Gal fluorescence, pH 4.5; inconclusive = small, poorly fitted or top-dose-only inhibition, or a rising curve; inactive = flat fitted curve, though single readings scatter; no compound was filed as active;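 also: 0% = full activity with enzyme and -100% = basal without enzyme; dose as in the result columns while the protocol names 77 µM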
Rango release inh: qHTS Assay for Inhibitors of RanGTP induced Rango (Ran-regulated importin-beta cargo) - Importin beta complex dissociation | Biochemical FRET Rango-importin beta, RanGTP-induced dissociation | actives 0.071% (n = 340,000) | AID 540253, 2011 | Snurportin-1 (Homo sapiens) + GTP-binding nuclear protein Ran (Homo sapiens) + Importin … | Potency, µM (highest dose often 46.1 µM), inactives show at the highest dose activity change, negative = inhibition; active means falling FRET ratio curve, often poorly fitted, with flat reads before Ran was added; inconclusive means other falling curves, or compound fluorescence or quenching; inactive means flat or rising ratio curve;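 also: potency is read from the fitted curve at half-maximal effect; % of control where 0% means no effect; nearly all actives have a fitted effect of over 45% in size; -100% = wells without RanGTP and RCC1; the record marks most hits as doubtful in a second field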
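Rango FRET biosensor (snurportin-1 IBB flanked by N-terminal EYFP and C-terminal CFP10) at 0.1 uM, with 0.25 uM importin beta in PBS, 1mM DTT, 0.02% Tween-20, 0.1% BSA. 0.6 uM Ran, 2mM GTP and 0.2 uM RCC1 were then added for 45 min at room temperature. Inhibition read as loss of FRET rise.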
* marks the source's active call; other numbers are inactive results; ? = inconclusive; / = no result given; & = joins results of further samples. This is a subset; count on the stated rates, not on these rows.

miR-21 FLuc	Rango release inh	Rango complex inh	GLA inh pH 4.5	smiles
0%	-16%	4.2%	4	CCCCN(CCCC)Cc1cc2ccccc2c2c1COC2
-6%	2%	-1.6%	/	O=[N+]([O-])c1cccc(S(=O)(=O)NCCc2ccccc2)c1
/	1%	0.7%	/	CN(C(=O)c1cccc(NC(=O)Cc2ccc([N+](=O)[O-])cc2)c1)C1CC1
-6%	2%	-0.5%	/	CCOc1ccc(N(C)C(=O)CCc2nnc3ccc(N4CCOCC4)nn23)cc1
-1%	11%	-4.2%	/	O=C(CN(Cc1ccc(F)cc1)C(=O)CNS(=O)(=O)c1ccc(F)cc1)NCC1CCCO1 (stereo unspecified)
-6%	6%	-0.9%	/	Cc1ccccc1-n1ncc2c1CC(C)(C)CC2NC(=O)C1=CC(=O)CC(C)(C)O1 (stereo unspecified)
-4%	9%	0.8%	-3	O=C(COC(=O)/C=C/c1ccc(Cl)cc1Cl)NCCC1=CCCCC1
-9%	1%	?	/	CCCCn1c(N)c(N(CCC(C)C)C(=O)c2cc(-c3ccco3)nc3ccccc23)c(=O)[nH]c1=O
-3%	3%	3.3%	/	CC(=O)c1ccc(N(C(=O)CNC(=O)c2ccco2)C(C(=O)NC2CCCC2)c2ccc(C)o2)cc1 (stereo unspecified)
12%	-2%	-0.8%	-7	CCC1(C)Nc2ccccc2C(=O)N1O (stereo unspecified)
/	-4%	-2.0%	/	COc1cc(S(=O)(=O)Nc2ccccc2C(=O)N2CCCCC2)ccc1NC(C)=O
24%	-16%	5.8%	/	CCC[C@@H](CN[C@@H](CNC)C(C)C)NCCCCc1ccccc1
-59%	-5%	0.9%	-4	Cc1cccc(NC(=O)c2ccc(C(=O)c3ccccc3)o2)c1
/	-6%	-12%	/	CN(Cc1ccccc1)C(=O)c1cccc(NC(=O)Cc2ccc(NC(=O)C3CCN(C(=O)C4CC4)CC3)cc2)c1
0%	-3%	1.4%	-20	Cc1noc(C)c1COc1ccc(C(=O)OCC(=O)Nc2ccc3c(c2)OCO3)cc1
19%	0%	0.4%	3	COc1cccc(OCCN2CCN(c3ncnc4c3cnn4-c3ccccc3)CC2)c1
-1%	3%	0.3%	/	Cc1cccc([C@@H]2[C@@H]3C(=O)N(Cc4ccccc4)C(=O)[C@@H]3[C@]3(Cc4ccc(Cl)cc4)C(=O)N(c4cccc(Br)c4)C(=O)N23)c1
-7%	-2%	0.4%	4	COc1ccc(OC)c(C2=Nn3c(nnc3-c3cc(OC)c(OC)c(OC)c3)SC2)c1
1%	1%	-0.9%	-1	CCN(CC)S(=O)(=O)c1ccc(Cl)c(C(=O)Nc2cc(C)nn2-c2ccccc2)c1
-39%	-3%	-1.0%	2	N#Cc1c(/N=C/N2CCOCC2)sc2c1CCCCC2
0%	-3%	-1.0%	7	Cc1ccc(CC2SC(N)=NC2=O)cc1 (stereo unspecified)
6%	2%	2.5%	-2	CCOC(=O)Cc1csc(NC(=O)Cn2cnc3c2c(=O)n(C)c(=O)n3C)n1
-37%	?	?	-1	O=C(Nc1nc2c(s1)CN(Cc1ccccc1)CC2)C1CCCC1
/	-9%	-2.1%	/	O=C(COC(=O)Cn1[nH]c(=O)c2ccccc2c1=O)NNC(=O)c1ccccc1
/	13%	4.3%	/	O=C1C(c2ccccc2)c2ccccc2N1Cc1ccccc1 (stereo unspecified)
/	2%	3.9%	/	COc1ccc(CCN2CC(C(=O)N(C)CC(=O)Nc3ccc(F)c(F)c3F)CC2=O)cc1OC (stereo unspecified)
-3%	-2%	-1.9%	6	Cc1ccc(C)c2[nH]c(=O)c(CCNC(=O)c3ccc(S(=O)(=O)N(C)C)cc3)cc12
-1%	-21%	-4.4%	/	O=C(CCc1nnc2ccc(NCc3ccco3)nn12)Nc1ccccc1F
1%	30%	-1.7%	-1	CC(CCc1ccccc1)NC(=O)c1cccnc1 (stereo unspecified)
0%	-4%	-4.0%	-18	CC(C)CC(COCc1cccc(C(F)(F)F)c1)N1CCN(C(=O)c2cccc(C(F)(F)F)c2)CCC1=O (stereo unspecified)
-3%	-1%	0.3%	1	C/C(=N\NC(=O)C1CC1c1ccccc1)c1ccc(C)s1 (stereo unspecified)
1%	-16%	-1.3%	-4	Cn1cc(CC(=O)NCCCN2CCCC2)c2ccccc21
-1%	1%	-0.4%	2	Cc1nnsc1NC(=O)OCc1ccc(Cl)cc1Cl
-8%	11%	0.4%	1	O=S(=O)(c1cccc(NC(=S)N2CCN(c3ccccc3F)CC2)c1)C(F)F
-27%	-3%	-3.2%	/	COc1cc(/C=N/NC(=O)c2ccccn2)ccc1OC(=O)c1ccc(Br)cc1
-1%	-14%	-2.0%	2	O=C(CCCOc1ccccc1)OCn1nnc2ccccc2c1=O
-14%	35%	1.6%	/	CN(C(=O)c1ccc2c(=O)n3c(nc2c1)CCCCC3)c1cccc(Cl)c1
4%	-8%	0.2%	/	Cn1c(=O)c2c(ncn2Cc2ccccc2)n(C)c1=O
-4%	-9%	1.0%	/	Cc1ccc(CN2CCC(=O)N2)cc1
6%	?	1.6%	/	O=C(COc1ccccc1F)Nc1ccc(S(=O)(=O)Nc2nccs2)cc1
-1%	49%	-1.1%	/	O=C(c1cccc(NS(=O)(=O)c2ccccc2)c1)N1CCCC1
3%	9%	-0.8%	9	CN1CCN(CCCCOc2ccccc2C=O)CC1
2%	-2%	3.7%	/	COc1ccccc1-c1nc(C#N)c(N2CCN(C(=O)c3ccco3)CC2)o1
/	17%	0.6%	/	CCOc1ccccc1NC(=O)COC(=O)c1ccccc1SCC(=O)N1CCCC1
-7%	8%	1.1%	5	CC(=O)Nc1ccc(-c2csc(NNC(=O)c3ccccc3)n2)cc1
-4%	8%	0.4%	4	COC(=O)c1ccc(C)c(NC(=O)CCNC(=O)c2ccc([N+](=O)[O-])cc2)c1
0%	-4%	-0.6%	/	COc1ccc(CCC(C)NC2CCCCCCC2)cc1 (stereo unspecified)
?	7%	5.5%	/	COc1ccc(Nc2c3c(nc4ccccc24)CCC3)cc1
-40%	6%	-2.4%	/	Cc1ccc(SCCN2CCC(C(C)(C)C)CCC2=O)cc1 (stereo unspecified)
-7%	5%	6.0%	-11	Cc1nc2ccc(NC(=O)c3ccc([N+](=O)[O-])cc3[N+](=O)[O-])cc2s1

Three structures out of the list, arranged by number of heavy atoms, highest first.
miR-21 FLuc	Rango release inh	Rango complex inh	GLA inh pH 4.5	smiles
/	17%	0.6%	/	CCOc1ccccc1NC(=O)COC(=O)c1ccccc1SCC(=O)N1CCCC1
-8%	11%	0.4%	1	O=S(=O)(c1cccc(NC(=S)N2CCN(c3ccccc3F)CC2)c1)C(F)F
?	7%	5.5%	/	COc1ccc(Nc2c3c(nc4ccccc24)CCC3)cc1

Following part
miR-21 FLuc	Rango release inh	Rango complex inh	GLA inh pH 4.5	smiles
17%	9%	1.0%	/	Cc1ccccc1NC(=O)CSc1nc2ccccc2c(=O)n1C
-1%	-7%	0.0%	/	COc1ccccc1N(Cc1cc(=O)[nH]c2ccccc12)C(C)=O
15%	/	/	-12	CC1=CC(C)(C)N(C(=O)C(C)N2C(=O)c3ccccc3C2=O)c2c(C)cc(C)cc21 (stereo unspecified)
-5%	27%	-4.2%	4	O=C(CN1CCC2(CC1)OCCO2)c1c[nH]c2ccccc12
0%	-8%	-6.1%	-9	CC1=C(C#N)C(NC(=O)c2ccco2)(C(F)(F)F)C(=O)N1 (stereo unspecified)
-1%	3%	3.0%	13	CCOC(=O)c1ccccc1NC(=O)CN(c1ccccc1OC)S(C)(=O)=O
-22%	?	?	/	COCCCNc1nc2c(-c3cccc(C)c3)nnn2c2ccc(Cl)cc12
-2%	-2%	1.9%	11	CC1=CC(C)C(C(=O)O)C(C(=O)Nc2cccnc2)C1 (stereo unspecified)
3%	-11%	0.8%	-26	CCCCOC(=O)C1=C(N)N2C(=O)C(C)SC2=C(C(=O)OCC)C1c1ccc(O)c(OC)c1 (stereo unspecified)
0%	19%	7.1%	0	Cc1ccc([N+](=O)[O-])cc1N(CC(=O)NCC1CCCO1)S(C)(=O)=O (stereo unspecified)
-2%	0%	2.1%	3	NC(=NC(=O)c1ccccc1)C1=C(O)CCC1=O
-13%	-20%	-3.8%	6	O=C(Nc1sc2c(c1C(=O)NC1CC1)CCCCCC2)c1ccco1
-2%	-7%	1.1%	4	CC1(C)Cc2ccccc2C(NN=C2CCCC2)=N1
-8%	11%	0.6%	/	CCOC(=O)c1ccc(NC(=O)c2c(Cl)cc(C)nc2C)cc1
?	-12%	-2.0%	-13	CC(C)C[C@@H]1NC(=O)[C@H](Cc2ccccc2)N(C)C(=O)[C@H](C)NC(=O)c2ccccc2NC(=O)[C@H](Cc2ccc(O)cc2)N(C)C1=O
-2%	4%	0.7%	/	CC(C(=O)N1CCc2ccccc21)N1CCN(Cc2ccccc2)CC1 (stereo unspecified)
6%	-6%	0.8%	-3&-7	COC(=O)C1=C(C(=O)OC)[C@@H]2N(Cc3ccccc3)c3ccccc3[C@@]23C[C@@H](C(=O)OC)N(C(C)=O)C3=N1
/	1%	2.9%	/	O=c1nc(NO)ccn1C1CCCO1 (stereo unspecified)
-2%	-5%	?	/	COc1ccc(S(=O)(=O)N2CCN(c3ccc(F)cc3)CC2)cc1C(=O)N1CCOCC1
-5%	2%	-1.2%	/	Cc1ccc(NC(=O)Nc2c(C)[nH]c(=O)[nH]c2=O)cc1Cl
/	-18%	-5.5%	/	CCN(C(=O)COC(=O)c1ccccc1Oc1ccccc1)c1c(N)n(Cc2ccccc2)c(=O)[nH]c1=O
1%	2%	3.8%	-7	CC(=O)Nc1ccc(C(=O)N/C(=C\c2ccccc2)C(=O)Nc2cccc(C(=O)O)c2)cc1
9%	-1%	-1.1%	-5	CC(O)CNc1nc2ccccc2n1-c1ncnc2sc3c(c12)CCC3 (stereo unspecified)
-1%	-18%	?	-4	O=C1C=C(NNC(=O)c2cccnc2)CC(c2ccco2)C1 (stereo unspecified)
-41%	22%	-5.2%	4	Cc1ccc(NC(=O)c2noc3c2CCC3)cc1C
2%	6%	-0.3%	-5	CCOc1ccc(S(=O)(=O)N(CC(=O)Nc2cc(C)on2)Cc2ccccc2Cl)cc1
/	-10%	-5.0%	/	COc1ccc(S(=O)(=O)N2CCCCC2)cc1NC(=O)CCCOc1ccc(C)cc1
9%	1%	-1.6%	/	NC(=O)c1ccccc1NC(=O)CC12CC3CC(CC(Br)(C3)C1)C2
/	-3%	0.6%	/	Cc1ccc(Cn2c(SCC(=O)N(C)C3CCS(=O)(=O)C3)nc3ccccc3c2=O)cc1 (stereo unspecified)
2%	15%	1.4%	0	OCC1(CCc2ccccc2)CCN(Cc2c(F)ccc(F)c2F)CC1
/	5%	-0.5%	/	COc1cc(OC)c(C(=O)OCC(=O)N2CCN(S(=O)(=O)c3ccc(C)cc3C)CC2)cc1OC
-1%	23%	0.2%	3	CC(C)(C)c1nc2cc(Cl)c([N+](=O)[O-])cc2o1
-4%	-27%	-3.6%	-4	COc1ccc(C2=NOC(C(=O)NCc3ccco3)C2)cc1 (stereo unspecified)
?	-3%	-3.5%	4	Cc1ncc([N+](=O)[O-])n1Cc1ccccc1F
/	?	-0.8%	/	COc1ccc(CN2CCN(C(=O)C3CCN(C(=O)Nc4ccccc4)CC3)CC2)cc1OC

Filtered by structure: the entries above containing a CF3 group (two)
miR-21 FLuc	Rango release inh	Rango complex inh	GLA inh pH 4.5	smiles
0%	-4%	-4.0%	-18	CC(C)CC(COCc1cccc(C(F)(F)F)c1)N1CCN(C(=O)c2cccc(C(F)(F)F)c2)CCC1=O (stereo unspecified)
0%	-8%	-6.1%	-9	CC1=C(C#N)C(NC(=O)c2ccco2)(C(F)(F)F)C(=O)N1 (stereo unspecified)
